VDR inh: vitamin D3 receptor (human) inhibition; P11473; VDR-SRC2-3 peptide fluorescence polarization, 2 h; Potency, µM, without a hit: max response, negative = inhibition, actives largely listed as inhibitors; 400,000 compounds, 0.93% hits; AID 504847; active = well fitted inhibition curve with a large enough effect; inconclusive = small, poorly fitted or top-dose-only effect, or another doubt; inactive = no such curve, though single readings can be large or run the other way; note: series mostly up to about 120 µM
Target sequence (P11473 whole entry, looked up): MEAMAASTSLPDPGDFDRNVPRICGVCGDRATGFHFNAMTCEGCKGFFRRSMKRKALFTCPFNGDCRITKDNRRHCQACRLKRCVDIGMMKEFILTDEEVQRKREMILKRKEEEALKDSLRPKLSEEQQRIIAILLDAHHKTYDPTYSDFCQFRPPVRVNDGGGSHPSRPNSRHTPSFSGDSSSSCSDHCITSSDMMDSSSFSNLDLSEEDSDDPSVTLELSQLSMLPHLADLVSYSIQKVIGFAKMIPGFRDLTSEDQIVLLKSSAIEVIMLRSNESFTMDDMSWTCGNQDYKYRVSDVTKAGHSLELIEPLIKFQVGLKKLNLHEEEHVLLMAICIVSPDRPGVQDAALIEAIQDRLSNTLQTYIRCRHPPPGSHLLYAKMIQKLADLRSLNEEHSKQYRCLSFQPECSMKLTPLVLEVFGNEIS
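After 23 nl compound addition and a short centrifugation, plates sat for 2 hours at ambient temperature; polarization of fluorescence then indicated loss of VDR binding to peptide SRC2-3.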
* marks the source's active call; other numbers are inactive results; ? = inconclusive. % is set by controls: 0 for no effect and ±100 for the full control effect; potency is the fitted concentration of half-maximal effect. The list is partial; count on the stated rates, not on these rows.

Start of the data: the first 7 entries as a preview:
mol,VDR inh
CCCN(CCC)C(=O)Cn1c(=O)n(CCCCC(=O)NC2CCCC2)c(=O)c2ccccc21,1%
COc1ccc(CNCc2c(C(=O)N(C)C)nc3ccc(Cl)cn23)c(OC)c1,7%
Clc1ccc(NCc2nc3ccccc3n2CCOc2ccccc2)cc1,4%
CCOc1ccc(Nc2ncnc(N)n2)cc1,3%
O=C(NC12CC3CC(CC(C3)C1)C2)N1CCN(C(=O)c2ccco2)CC1,3%
Cc1ccc(NC(=O)c2sc(N)nc2-c2ccc([N+](=O)[O-])cc2)cc1C,-24%
CCOC(=O)c1c(-c2ccccc2)csc1/N=C/C1C(=O)CCCC1=O,-9%

All compounds of this part, from the first entry:
mol,VDR inh
CCCN(CCC)C(=O)Cn1c(=O)n(CCCCC(=O)NC2CCCC2)c(=O)c2ccccc21,1%
COc1ccc(CNCc2c(C(=O)N(C)C)nc3ccc(Cl)cn23)c(OC)c1,7%
Clc1ccc(NCc2nc3ccccc3n2CCOc2ccccc2)cc1,4%
CCOc1ccc(Nc2ncnc(N)n2)cc1,3%
O=C(NC12CC3CC(CC(C3)C1)C2)N1CCN(C(=O)c2ccco2)CC1,3%
Cc1ccc(NC(=O)c2sc(N)nc2-c2ccc([N+](=O)[O-])cc2)cc1C,-24%
CCOC(=O)c1c(-c2ccccc2)csc1/N=C/C1C(=O)CCCC1=O,-9%
COCCNC(=O)CN(c1ccccc1OC)S(C)(=O)=O,2%

Single entries from above.
Under VDR inh, CCOC(=O)c1c(-c2ccccc2)csc1/N=C/C1C(=O)CCCC1=O is entered as -9%
Under VDR inh, Cc1ccc(NC(=O)c2sc(N)nc2-c2ccc([N+](=O)[O-])cc2)cc1C is entered as -24%

Further entries.
mol,VDR inh
Clc1ccc(/C(Cc2nc3ccccc3[nH]2)=N\Nc2ccccc2)cc1,-24%
O=C(Oc1ccc([N+](=O)[O-])cc1)c1cc(-c2ccccc2)nc2ccccc12,-9%
O=C(NCC1COc2ccccc2O1)c1cccc(S(=O)(=O)N2CCCCC2)c1 (stereo unspecified),-4%
CCCC(C)NCC(=O)Nc1ccccc1-c1ccccc1 (stereo unspecified),1%
Cn1c2ccccc2n2c(=O)c(=O)n(CC(=O)c3ccc(F)cc3)nc12,-4%
COc1ccc(N2CCN(C(=O)c3cccc(Br)c3)CC2)c([N+](=O)[O-])c1,?
CC(C)C[C@H](NC(=O)c1[nH]cnc1C(=O)Nc1ccc(CNC(=O)OC(C)(C)C)cc1)C(=O)OC(C)(C)C,9%
O=C1N(O)C2(C=CCCC2)/C(=N\O)C12CCCCC2 (stereo unspecified),-13%

Carrying on:
mol,VDR inh
CCN(CC)C(=O)[C@H]1C[C@H](CC(=O)NCCc2ccccn2)C(=O)N2CCc3c([nH]c4cc(-c5ccco5)ccc34)[C@]12C,-22%
CC(=O)c1cccc(CN2CCN(C(C)C)C(CCO)C2)c1 (stereo unspecified),-6%
CN(CC(=O)Nc1ccc(F)cc1)C(=O)C1Cc2ccccc2CN1S(C)(=O)=O (stereo unspecified),-5%
CCCS(=O)(=O)N1CC(=O)N(c2ccc(Cl)cc2)C(C)(C(=O)NC2CCCC2)C1 (stereo unspecified),18%
CCC(C)N1C(=O)CCC1C(=O)NCCc1ccc(Cl)cc1 (stereo unspecified),-9%
CCS(=O)(=O)c1ccc2oc(SCC(=O)NCCc3ccc(F)cc3)nc2c1,-2%
O=C(Nc1ccccc1)N1CCc2ccccc21,26%
COc1ccc(C2=C(C)CC(C)(C)NC2=O)cc1OC,-12%

(further entries)
mol,VDR inh
CSCCC1NC(=O)N(CC(=O)Nc2c(Cl)cc(Cl)cc2Cl)C1=O (stereo unspecified),-10%
COc1ccc(N2CCN(C(=O)c3ccc(NC(=O)c4nsc5ccccc45)cc3)CC2)cc1,5%
Cc1ccccc1N(CC(=O)NCCSC1CCCCC1)S(=O)(=O)c1ccccc1,-9%
O=C(NCc1ccc(Cl)cc1)C1CCN(C(=O)c2cnn(-c3ccccc3)c2-n2cccc2)CC1,-5%
O=C(Cn1c(NCCO)nc2ccccc21)c1ccc(Cl)cc1Cl,?
CCC1CCCCN1CC(=O)c1c(C)[nH]c2cc(C)ccc12 (stereo unspecified),5%
Cc1nnc(SCC(=O)c2cc(C)n(-c3c(C)n(C)n(-c4ccccc4)c3=O)c2C)s1,9%
COc1ccc(OC(C)c2nnc(N)s2)cc1 (stereo unspecified),-12%

The closing 6 compounds of the section above are carried over, then new ones follow:
mol,VDR inh
Cc1ccccc1N(CC(=O)NCCSC1CCCCC1)S(=O)(=O)c1ccccc1,-9%
O=C(NCc1ccc(Cl)cc1)C1CCN(C(=O)c2cnn(-c3ccccc3)c2-n2cccc2)CC1,-5%
O=C(Cn1c(NCCO)nc2ccccc21)c1ccc(Cl)cc1Cl,?
CCC1CCCCN1CC(=O)c1c(C)[nH]c2cc(C)ccc12 (stereo unspecified),5%
Cc1nnc(SCC(=O)c2cc(C)n(-c3c(C)n(C)n(-c4ccccc4)c3=O)c2C)s1,9%
COc1ccc(OC(C)c2nnc(N)s2)cc1 (stereo unspecified),-12%
N#CC1=C(SCC(=O)c2cc3ccccc3oc2=O)NC(=O)C(C#N)C12CCCC2 (stereo unspecified),13%
Cc1ccccc1OCc1n[nH]c(=S)n1-c1ccccc1,2%
Cc1ccc(-c2ccc(NC(=O)C3C4C=CC(C4)C3C(=O)O)cc2)o1 (stereo unspecified),9%
C=CCOC(=O)CN1C(=O)c2ccccc2C1=O,-5%
O=C(N/N=C/c1ccc([N+](=O)[O-])o1)c1ccc2c(c1)OCO2,2%
O=C(NC1CCS(=O)(=O)C1)c1c(NC(=O)C2COc3ccccc3O2)sc2c1CCCC2 (stereo unspecified),2%
COCCn1c(C)cc(C(=O)COC(=O)c2ccc(NC(=O)CC#N)cc2)c1C,24%
Cc1cc(NC(=O)OC(C)C)ccc1-c1ccc(NC(=O)OC(C)C)cc1C,3%

For reference, some entries already given.
mol,VDR inh
COCCn1c(C)cc(C(=O)COC(=O)c2ccc(NC(=O)CC#N)cc2)c1C,24%
Cc1cc(NC(=O)OC(C)C)ccc1-c1ccc(NC(=O)OC(C)C)cc1C,3%

(list continues)
mol,VDR inh
Cc1cccc2cc(CN(Cc3ccc(F)cc3)C(=O)C(F)(F)F)c3nnnn3c12,20%
Fc1ccc(C(c2nnnn2C2CCCC2)N(Cc2ccco2)CC2CCCO2)cc1 (stereo unspecified),-5%
COc1ccc(Cc2nn3c(Cn4nnc5ccccc54)nnc3s2)cc1,?
Cn1c(N)nc2nc[nH]c2c1=S,-8%

Screening results from PubChem BioAssay.
